# Akt phos inh – HTS Assay for Inhibitors of Akt Phophorylation: Primary Screen; Neuro2A IGF-stimulated pAkt S473 HTRF, 20 min; hits give low values; activity change, % for hits at 50 µM; 360,000 compounds, 0.32% hits; in the data active = activity change below about -80%; inconclusive = mostly about -51% to -80%; note: % is set by controls: 0 for no effect and ±100 for the full control effect
#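 Neuro2A cells in DMEM with 0.5% FBS, overnight at 37 deg C, given compound at single 50 µM final, then IGF (6 nM final) for 20 min at 37 deg C. Lysed; phospho-Akt Ser473 by HTRF after 24 h, 665/615 ratio.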
# Nrf2 inh – Nrf2 qHTS screen for inhibitors; A549 ARE-Fluc reporter, luciferase luminescence, 18-24 h; Potency, µM (doses to about 46 µM), without a hit: at the top dose activity change, negative = inhibition, usual class: inhibitors; 360,000 compounds, 2.1% hits; AID 504444, 2011; note: potency is the fitted concentration of half-maximal effect; % is set by controls: 0 for no effect and ±100 for the full control effect; nearly all actives have a fitted effect of over 60% in size
#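 A549 ARE_Fluc cells (5000/well, 5% FBS OPTI-MEM) pre-incubated 2 h, then treated with compounds 18-24 h at 37C/5% CO2 in concentration-response. CellTiter-Fluor viability read first; BugLite luciferase luminescence after 15 min at room temperature gives Nrf2 activity.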
# TGFb SMAD3 inh – qHTS for Inhibitors of TGF-b; AID 588855, 2011; 410,000 compounds, 1.2% hits; HepG2 CAGA-GFP TGF-b/SMAD3 reporter, GFP fluorescence, 18 h; TGF-beta stimulated, 500 pg/mL final; Potency, µM (highest dose often 46.1 µM), without a hit: at the highest dose activity, negative = inhibition, actives largely listed as inhibitors; note: potency is the fitted concentration of half-maximal effect; % is set by controls: 0 for no effect and ±100 for the full control effect; nearly all actives have a fitted effect of over 65% in size
#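 TGF-beta reporter screen: HEPG2 CAGA-GFP, 1% FBS, 500 pg/mL TGF-beta final, 18 h; per-cell GFP summed per well; curves fitted and categorized by class.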
# Nrf2 ARE act – qHTS of Nrf2 Activators; AREc32 ARE-luciferase reporter (MCF7-derived line), luminescence, 24 h; Potency, µM (doses to about 46.1 µM), without a hit: at the highest dose activation, actives largely listed as activators; 410,000 compounds, 0.31% hits; note: potency is the fitted concentration of half-maximal effect; % of control where 0% means no effect; nearly all actives have a fitted effect of over 65% in size
#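 ARE activation measured as luciferase luminescence (Steady-Glo, 30 min RT) in AREc32_Fluc cells after 24 hr compound exposure at 37 deg C, 5% CO2; cells seeded overnight at 1000/well in OPTI-MEM, 5% FBS.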
# Mm-Cpn inhibitor – Inhibitors of TCP-1 ring complex (TRiC) of Methanococcus maripaludis (MmCpn): qHTS | Potency, µM (doses to about 76.9 µM), inactives show at the highest dose activity, negative = inhibition, usual class: inhibitors | purified Mm-Cpn ATPase, ADP Transcreener TR-FRET | Chaperonin Mm-Cpn (Methanococcus maripaludis) | 330,000 compounds, 0.031% hits; note: potency is the fitted concentration of half-maximal effect; % is set by controls: 0 for no effect and ±100 for the full control effect; nearly all actives have a fitted effect of over 80% in size
#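 Measured: ADP formation by purified Mm-CPN. Conditions: 25 nM protein, 10 uM ATP, Tris pH 7.4 with Mg2+, K+ and DTT, 37°C for 30 min. Detection: Transcreener HTRF after 30 min at room temperature.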
# CCT chaperon mod – High-Throughput Screening for Modulators of Cytosolic Chaperonin Activity; AID 651819, 2012; 360,000 compounds, 0.3% hits; purified chaperonin ATPase assay, HTRF ADP detection, 30 min; activity change, % (no concentration beside the values), hits read low; in the data active = activity change below about -30%; note: % is set by controls: 0 for no effect and ±100 for the full control effect
#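 TRiC (40 or 20 nM final, by batch activity) in 30 mM Tris pH 7.4, 100 mM KCl, 5 mM MgCl2, 1 mM DTT was treated with compound at 76 uM single dose, then 10 uM ATP, 30 min at 37 °C. ADP was read by HTRF Transcreener.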
# A549 viability – Nrf2 qHTS screen for inhibitors: counterscreen for cytotoxicity. A549 ARE-Fluc cells, CellTiter-Fluor viability, 18-24 h. 390,000 compounds, 0.16% hits. Potency, µM (series often up to 46 µM), inactives show at the highest dose activity change, negative = cytotoxicity, most hits filed as inhibitors; note: potency is the fitted concentration of half-maximal effect; % is set by controls: 0 for no effect and ±100 for the full control effect
#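 A549 ARE-Fluc cells in 5% FBS OPTI-MEM, 5000 cells/well, rested 2 h then exposed to compounds in concentration-response for 18-24 h at 37 °C. Viability by CellTiter-Fluor fluorescence (Ex 405/Em 525) after 30 min; luciferase luminescence (BugLite, 15 min, RT) read afterwards.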
# * hit, by the source's call; i = inactive; u = inconclusive; x = not tested or not shown; [ ] = another dose, or the depositor's remark. Unless noted, calls come from the whole dose curve; as a rule, active = well fitted curve in the direction sought with a large enough effect; inconclusive = small, poorly fitted or top-dose-only effect, or another doubt; inactive = no such curve, though single readings can be large; an effect the other way counts as inactive or inconclusive. These rows are one share of the data, so the mix of outcomes need not match the whole.
SMILES,Akt phos inh,Nrf2 inh,TGFb SMAD3 inh,Nrf2 ARE act,Mm-Cpn inhibitor,CCT chaperon mod,A549 viability
COC(=O)[C@H](C(C)C)N(Cc1ccccc1)S(=O)(=O)CCNC1CCCC1,i,10%,u,6.0%,u,0.0,2%
O=C(CSc1nc(C2CC2)n(-c2ccccc2)n1)NCc1ccco1,i,-16%,19%,7.5%,-1%,-3.3,5%
COC(=O)c1ccc2nc(-c3ccc(F)cc3)c(Cc3cccc(Cl)c3)n2c1,i,x,x,13%,x,0.0,x
O=C(N/N=C/c1ccc([N+](=O)[O-])cc1)c1ccc(NS(=O)(=O)c2cccs2)cc1,i,-8%,18%,9.9%,-2%,-2.3,-7%
O=C(Cc1ccccc1)N/N=C/C=C/c1ccccc1[N+](=O)[O-],i,1%,-7%,5.7%,1%,0.1,0%
CSc1nnc2c(n1)[nH]c1c(C)cccc12,i,-18%,-4%,15%,-1%,-0.5,1%
C[C@H](NC(=O)c1nc[nH]c1C(=O)N[C@@H](C)c1ccccc1)C(=O)OC(C)(C)C,i,u,-16%,-0.2%,x,1.2,-8%
COc1ccc(S(=O)(=O)N2CCN(CCC(=O)Nc3ccc(F)cc3)CC2)cc1,i,u,0%,11%,1%,-0.4,-8%
CCCCN1CNC(=S)N(c2ccccc2OCC)C1,i,2%,u,2.8%,0%,0.1,0%
CN(C)c1oc(/C=C/c2ccccc2)nc1C#N,i,u,-5%,7.9µM*,-10%,-1.8,u
CN1CCN(S(=O)(=O)c2ccc(NC(=S)NC(=O)C(C)(C)C)cc2)CC1,i,5%,0%,-0.4%,-2%,-0.4,3%
O=S1(=O)CCC(NS(=O)(=O)c2ccc3ccccc3c2)C1 (stereo unspecified),i,-7%,-8%,-0.2%,1%,-0.1,-1%
COc1cccc(Cn2cnc(-c3ccccc3OC)c2-c2cc(C)cc(C)c2)c1,i,x,x,-2.5%,x,0.7,x
CCC(=O)N(CCC(c1ccc(C)cc1)c1ccco1)Cc1ccco1 (stereo unspecified),i,-5%,-1%,6.7%,-2%,0.6,3%
CC(NC(=O)CSc1nc(=O)cc(N)n1-c1ccccc1)c1ccccc1 (stereo unspecified),i,4%,-1%,-0.5%,2%,-0.8,1%
COc1cc2c(cc1OC)-c1cc(N3CCCc4ccccc43)nc(=O)n1CC2,i,-5%,7%,3.1%,-2%,-4.5,2%
COc1ccc(S(=O)(=O)N(CCN2CCOCC2)Cc2cc(OC)ccc2OC)cc1,i,u,8%,-1.1%,0%,2.1,-13%
O=C(NCc1cccs1)C1(S(=O)(=O)c2ccccc2)CC=CC1,i,3%,4%,-0.6%,2%,0.0,-5%
CCOC(=O)c1c(CC(C)C)csc1NC(C)=O,i,x,u,0.4%,0%,-1.9,3%
Nc1c(Cl)cc(C2=NCCn3c2c2ccc([N+](=O)[O-])cc2[n+]3[O-])cc1Cl,i,5%,11µM*,u,0%,-0.7,u
COc1ccc(OCCNC(=O)C2(C)CCN2Cc2ccc3ccccc3c2)cc1 (stereo unspecified),i,x,14µM*,-1.8%,x,0.1,x
CC(C)CCN1CCN(C/C=C/c2ccco2)CC1CCO (stereo unspecified),i,0%,-5%,-0.1%,0%,-2.3,-6%
Cc1ccc(CNCc2cc3c(C(C)(C)C)nn(-c4ccccc4)c3[nH]c2=O)cc1,i,u,-28%,5.6%,0%,1.7,-15%
O=C(NCC1CC1)C1(S(=O)(=O)c2ccccc2)CC=CC1,i,-17%,14%,0.1%,0%,-2.7,-2%
COc1ccc(CNc2nc(NCc3ccc(OC)cc3)n(C(=O)c3ccccc3[N+](=O)[O-])n2)cc1,x,5%,-2%,2.4%,-1%,-0.3,-15%
Nc1c(Cl)cc(C2=NCCn3c2c2ccc(C(F)(F)F)cc2[n+]3[O-])cc1Cl,i,-3%,-1%,7.4%,2%,0.9,-13%
Cc1cc(C)c(NC(=O)C2CCCN2CCOC(=O)c2cccc([N+](=O)[O-])c2)c(C)c1 (stereo unspecified),i,u,-28%,3.6%,0%,-1.9,21%
COc1cc(-c2nc3ccc(C)cn3c2NCc2ccccc2)ccc1SC1CCCCC1,i,u,u,-0.2%,0%,1.8,u
CC(=O)NS(=O)(=O)c1cccnc1Nc1ccc(Cl)cc1,i,-5%,5%,0.6%,0%,2.0,-1%
Cc1nc2ccccc2c(C)c1C(=O)c1ccccc1,i,u,10%,0.3%,2%,0.4,-11%
COc1cc(OC)c(OC)cc1/C=N/n1c(C)nnc1C,i,11%,-6%,2.2%,-2%,2.6,-4%
CCCC(CNC(C)=O)(C1=CCCCC1)c1ccccc1 (stereo unspecified),i,x,21%,0.4%,x,0.5,x
COc1ccc(NS(=O)(=O)c2ccc(Br)cc2)cn1,i,-12%,-15%,0.5%,0%,0.1,3%
O=c1c2c(nc3c(-c4ccccc4)c[nH]n13)CCCC2,i,u,-14%,3.8%,1%,1.0,-18%
CC(=O)C1=C(C)NC(C)=C(C(C)=O)C1c1ccc(-c2ccccc2Cl)o1,x,-12%,28%,7.2%,0%,-1.2,5%
CCOC(=O)c1c(CC(C)C)csc1NC=O,i,-9%,-1%,0.5%,0%,-1.4,-8%
Cc1ccc(C)c(NCCCCCCCC(=O)O)c1,i,x,-8%,-0.8%,x,0.7,x
O=C(CSc1ncnc2c1cnn2-c1ccc(F)cc1)NC1CCCC1,i,5.2µM*,3%,0.5%,-2%,1.1,1%
Cc1ccc(CNC(=O)C2(S(=O)(=O)c3ccccc3)CC=CC2)cc1,i,u,-5%,4.4%,3%,-1.6,0%
Cc1cc(C)c2c(CC(=O)NN(C)C)coc2c1,i,-2%,-9%,0.2%,-1%,-1.4,1%

# Some of these compounds in order of the CCT chaperon mod value, lowest first:
canonical_smiles,Akt phos inh,TGFb SMAD3 inh,Mm-Cpn inhibitor,CCT chaperon mod
O=C(NCC1CC1)C1(S(=O)(=O)c2ccccc2)CC=CC1,i,14%,0%,-2.7
O=C(N/N=C/c1ccc([N+](=O)[O-])cc1)c1ccc(NS(=O)(=O)c2cccs2)cc1,i,18%,-2%,-2.3
CSc1nnc2c(n1)[nH]c1c(C)cccc12,i,-4%,-1%,-0.5
COC(=O)[C@H](C(C)C)N(Cc1ccccc1)S(=O)(=O)CCNC1CCCC1,i,u,u,0.0
CCCCN1CNC(=S)N(c2ccccc2OCC)C1,i,u,0%,0.1
Cc1ccc(CNCc2cc3c(C(C)(C)C)nn(-c4ccccc4)c3[nH]c2=O)cc1,i,-28%,0%,1.7
COc1cc(OC)c(OC)cc1/C=N/n1c(C)nnc1C,i,-6%,-2%,2.6

# More results.
SMILES,Akt phos inh,Nrf2 inh,TGFb SMAD3 inh,Nrf2 ARE act,Mm-Cpn inhibitor,CCT chaperon mod,A549 viability
COc1ccc(NS(=O)(=O)c2ccc(F)cc2F)cn1,i,1%,3%,-0.4%,-5%,1.5,5%
O=C(NC(=S)Nc1ccc(S(=O)(=O)N2CCCC2)cc1)C1CC1,i,-14%,0%,3.1%,1%,-0.2,5%
N#Cc1c(N)c(C#N)c(-c2ccc3c(c2)OCO3)c2c1CCCC2,i,-21%,5%,0.4%,2%,-2.3,0%
CCOC(=O)/C(=N\O)C1=NC(C)(C)Cc2ccccc21,i,-8%,-1%,-1.3%,3%,0.2,-6%
c1ccc(-c2nc(CSc3n[nH]c(-c4cccs4)n3)cs2)cc1,i,1%,-3%,10%,-12%,-3.5,-3%
CCCCCSc1nc(O)cc(=O)[nH]1,i,x,10%,2.5%,2%,-1.5,5%
COc1ccc(/C=C/C(=O)c2ccc(OC)cc2OC)c(OC)c1,i,u,42%[activator],u,x,-0.8,-17%
CCN(Cc1cnn(C)c1)Cc1nc(C2(c3ccc(C)cc3)CCCC2)no1,i,0%,-16%,-0.1%,1%,-10,5%
O=C1N(c2cccc(Cl)c2)C(c2ccc(Cl)cc2)N2CCCN12 (stereo unspecified),i,3%,4%,0.3%,1%,-1.2,-4%
O=C1NC2(CCCCCC2)C(=O)N1Cc1ccc(Cl)cc1Cl,i,u,-12%,7.2%,-11%,1.6,-2%
CCn1c(=O)n(CC)c2cc(S(=O)(=O)N3CCCCC3)c(C)cc21,i,11%,-2%,3.6%,1%,0.0,8%
c1ccc(CNCCC(Cc2ccccc2)c2ccco2)cc1 (stereo unspecified),i,1%,20µM*,7.8%,-1%,-0.1,-1%
CC(=O)Oc1ccc(C(=O)Nc2ccc(C3(C#N)CCCC3)cc2)cc1,i,u,7%,14%,-6%,-2.9,u
CCN(CC)CCOCCOc1ccc(Cl)c2ccccc12,i,5%,u,0.7%,-2%,-0.7,13%
O=S(=O)(Nc1ccc2c(c1)nc1n2CCOC1)c1ccc(Cl)cc1,i,-15%,-1%,-0.4%,-1%,-0.9,x
NS(=O)(=O)c1ccc(NC(=O)COC(=O)C2(c3ccccc3F)CCCC2)cc1,i,21µM*,-3%,0.4%,0%,-0.4,u
COc1ccccc1NC(=O)C1=C(C)Nc2nnnn2C1c1cccc(Br)c1 (stereo unspecified),x,-11%,0%,-0.5%,1%,-18,-8%
CC(C)NC(=O)NC(=O)COC(=O)Cc1c(F)cccc1Cl,i,1%,12%,0.4%,-5%,-0.9,5%
COc1ccccc1C1CC(=O)Oc2cc(C)c(Br)c(C)c21 (stereo unspecified),i,-8%,u,0.3%,2%,0.3,-5%
COc1cc(S(=O)(=O)N2CCCCCC2)c(OC)cc1Br,i,3%,13%,-0.5%,0%,0.5,-1%
COC(=O)c1ccc2nc(C3CCCCC3)c(Cc3ccccc3)n2c1,i,x,u,3.3%,x,-0.4,x
Cc1cc(C)c2c(CC(=O)N3CCCC3)coc2c1,i,-4%,8%,-1.0%,-1%,0.5,-2%

# Another view of some results above:
# Each structure is followed by: Akt phos inh | Nrf2 inh | TGFb SMAD3 inh | Nrf2 ARE act | Mm-Cpn inhibitor | CCT chaperon mod | A549 viability
> CCOC(=O)/C(=N\O)C1=NC(C)(C)Cc2ccccc21
 : i | -8% | -1% | -1.3% | 3% | 0.2 | -6%
> c1ccc(-c2nc(CSc3n[nH]c(-c4cccs4)n3)cs2)cc1
 : i | 1% | -3% | 10% | -12% | -3.5 | -3%
> CCCCCSc1nc(O)cc(=O)[nH]1
 : i | x | 10% | 2.5% | 2% | -1.5 | 5%

# Compound activity (PubChem BioAssay)
